From PubChem BioAssay
Rce1 inhib: yeast Rce1p protease inhibitors, primary screen, biochemical, fluorescence, cell-free homogeneous; CAAX prenyl protease 2 (Saccharomyces cerevisiae (strain ATCC 204508 / S288c)), Q03530; calls only; actives 0.27% (n = 290,000); AID 2563, 2010; yeast membranes, quenched prenylated peptide cleavage fluorescence;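 active means fall in fluorescence gain of 50% or more versus controls, with final raw signal at or below 3038400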;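 further: plate controls were neutral control wells for no effect and wells lacking membranes for full effect; tested at 10 µM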
Target sequence (Q03530 whole entry, looked up): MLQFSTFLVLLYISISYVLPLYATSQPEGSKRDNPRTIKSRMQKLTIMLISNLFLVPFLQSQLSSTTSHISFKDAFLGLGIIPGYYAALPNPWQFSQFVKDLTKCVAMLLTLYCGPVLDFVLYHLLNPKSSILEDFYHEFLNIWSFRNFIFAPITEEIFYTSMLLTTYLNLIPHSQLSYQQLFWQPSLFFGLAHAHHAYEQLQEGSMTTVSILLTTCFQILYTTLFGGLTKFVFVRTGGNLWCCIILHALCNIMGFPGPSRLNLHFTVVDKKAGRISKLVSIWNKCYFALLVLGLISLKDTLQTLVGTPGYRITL
eIF4H FP inh: human eIF4H binding inhibitors, primary screen, translation initiation inhibitor project, biochemical, uHTS, fluorescence polarization; Eukaryotic translation initiation factor 4H (Homo sapiens), Q15056; eIF4H fluorescence polarization binding assay; inhibition, % at 35 µM; actives 0.94% (n = 290,000); AID 2012, 2009;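 active means 50% or more with normal probe brightness, or confirmed in later tests; about a fifth of its hits are not listed in these tables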;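 further: calls also rest on retests at 20 µM and on dose response follow-up; 0% = protein and probe with vehicle and 100% = probe without protein; strong numbers were not always called active; many hits fall short of the cut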
UUG fidelity: modulators of yeast start codon fidelity, primary screen, whole organism, S. cerevisiae, single point, plate reader | S. cerevisiae UUG-firefly luciferase reporter, luminescence/redox ratio | activity score, % at 18.7 µM | actives 0.13% (n = 350,000) | AID 602363, 2012;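 active means replicate mean at a twofold rise or more, about +100% in these data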;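 further: firefly luciferase made from a UUG start codon reports start codon fidelity; reporter light over untreated wells divided by growth signal over untreated wells; some hits fall short of that in this replicate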
CSC inhib: cancer stem cell viability inhibitors, primary screen, luminescence | cancer stem cell-like cells viability | inhibition, % at 7.5 µM | actives 1.1% (n = 300,000);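 active means mean at 75% or more and at least half the replicates too; tested in HMLE shEcad cells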;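 further: 0% = median of negative and 100% = median of positive control wells; the first replicate is given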
MT1-MMP act inh: blockers of MT1-MMP proenzyme processing, primary screen, HT1080 RFP-PRO-GFP cells, GFP/RFP fluorescence. Matrix metalloproteinase-14 (Homo sapiens), P50281. AID 651647, 2012. actives 0.061% (n = 360,000). GFP/RFP ratio change, % at 20 µM. GFP/RFP ratio fluorescence, overnight; percent of plate control window, DMSO zero;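 active means GFP/RFP ratio change of at least 30% with cell ATP level not reduced by more than half and red fluorescence within 50% of control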; further: strong numbers were not always called active
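Read-out: GFP/RFP fluorescence ratio; Test system: RFP-PRO-GFP reporter HT1080 cells; Compound dosing: single-point 20 µM compound, 1% DMSO; Times: overnight compound exposure at 37 °C.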
PABP polyA inh: PABP poly(A) RNA binding inhibitors, primary screen, biochemical, fluorescence polarization, uHTS; Polyadenylate-binding protein 1 (Homo sapiens), P11940; inhibition, % at 35 µM; actives 1% (n = 290,000); AID 2014, 2009;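 active means 50% or more with normal probe brightness, or confirmed in later tests; about a fifth of its hits are not listed in these tables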;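 further: calls also rest on retests at 20 µM and on dose response follow-up; controls were probe without protein and protein plus probe with vehicle; some compounds called inactive have numbers as strong as hits; many hits fall short of the cut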
Target sequence (P11940 whole entry, looked up): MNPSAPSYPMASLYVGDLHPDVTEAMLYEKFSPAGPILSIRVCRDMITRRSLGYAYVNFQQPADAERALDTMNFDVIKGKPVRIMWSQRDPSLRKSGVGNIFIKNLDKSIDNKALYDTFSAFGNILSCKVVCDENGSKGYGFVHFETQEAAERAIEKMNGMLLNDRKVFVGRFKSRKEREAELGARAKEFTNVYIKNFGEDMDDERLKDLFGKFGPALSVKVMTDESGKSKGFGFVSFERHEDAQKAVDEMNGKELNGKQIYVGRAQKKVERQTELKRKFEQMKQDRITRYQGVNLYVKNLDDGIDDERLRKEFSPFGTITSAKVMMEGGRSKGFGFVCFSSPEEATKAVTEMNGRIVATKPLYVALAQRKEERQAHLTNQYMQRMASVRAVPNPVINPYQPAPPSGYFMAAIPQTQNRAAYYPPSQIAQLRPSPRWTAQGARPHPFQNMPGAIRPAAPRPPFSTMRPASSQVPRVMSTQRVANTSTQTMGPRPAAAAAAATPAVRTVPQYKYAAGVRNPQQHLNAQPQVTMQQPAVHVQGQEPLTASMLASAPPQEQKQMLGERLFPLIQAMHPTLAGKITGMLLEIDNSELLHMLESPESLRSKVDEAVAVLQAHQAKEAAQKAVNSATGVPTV
HIV Env fusion: inhibitors of HIV-1 Env-driven cell-cell fusion, primary screen, HeLa-JRFL effector, CEM21 target cells, luciferase; AID 651610, 2012; inhibition, % at 12.3 µM; actives 1.1% (n = 360,000);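 active means mean replicate inhibition score of at least 50 and every replicate individually at or above 50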;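 further: 0% = plate neutral controls and 100% = maraviroc near 300 nM; one replicate is shown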
eIF4H FP inh retest: further read-out of eIF4H FP inh, marked with its call; inhibition, %; compound at 20 µM; confirmation average;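 mean of two retest wells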
PABP polyA inh retest: second read-out of PABP polyA inh, no call of its own (marks repeat the call); inhibition, %; compound at 20 µM; confirmation repeats;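 mean of two retest wells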
MT1-MMP act inh RFP: also measured in MT1-MMP act inh; calls as there; RFP signal change, %; measured here: RFP expression control read;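 0 = vehicle wells; hits needed this value within 50% of zero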
Active calls of the source: *; i = inactive; / = not tested or not shown.

SMILES | Rce1 inhib | eIF4H FP inh | UUG fidelity | CSC inhib | MT1-MMP act inh | MT1-MMP act inh RFP | PABP polyA inh | HIV Env fusion | others
Cc1ccc(N2C(=O)N(CC(=O)N3c4ccccc4CC3C)C(=O)C2C)cc1 (centres undefined) | / | / | 1 | / | 6 | -4 | / | -455
Cc1cc(C)c(S(=O)(=O)N2CCN=C2c2ccccc2)cc1C | / | 1 | -8 | -6 | 2 | 0 | -10 | 82*
Cc1ccc(S(=O)(=O)NC(=O)NCC2CCN(S(=O)(=O)c3ccccc3)CC2)cc1 | i | -2 | -24 | -3 | -2 | 1 | 10 | 6
Cc1n[nH]c(C)c1S(=O)(=O)N(CC(=O)Nc1ccc2c(c1)OCCO2)c1ccc(C(C)C)cc1 | i | -1 | -6 | -5 | -5 | -2 | 4 | 59*
COc1ccc(S(=O)(=O)N2CCOCC2)cc1C(=O)Nc1nc2ccccc2s1 | i | 1 | -5 | -6 | 0 | -2 | 2 | 1
Cc1ccc(C(=O)Nc2ccccc2C(=O)NC(CC(=O)O)C(=O)O)cc1 (centres undefined) | i | -8 | / | -5 | -4 | 1 | -7 | -73
Cc1cc(C)nc(NS(=O)(=O)c2ccc(NC(=O)CCC(=O)O)cc2)n1 | i | / | -4 | 14 | 1 | 4 | / | -9
Cn1c(Oc2ccccc2NCc2cc(Br)ccc2O)cc(=O)n(C)c1=O | i | -5 | -4 | 16 | -13 | -12 | 5 | /
O=C(Nc1cccc2c1CCCC2)c1ccco1 | i | 1 | / | -5 | 1 | 3 | -3 | /
COc1cccc(C(c2c(C)[nH]n(-c3ccccc3)c2=O)c2c(C)[nH]n(-c3ccccc3)c2=O)c1O | i | / | / | -10 | 9 | 3 | / | 6
CCOc1cc(N2CCOCC2)c(OCC)cc1NC(=O)c1ccc(-n2ccnc2)c([N+](=O)[O-])c1 | i | 3 | -11 | 6 | -1 | -4 | 5 | 15
Cc1ccc(-c2nc(CN(CC3CCC3)CC3CCCO3)c(C)o2)s1 (centres undefined) | i | 5 | 1 | -2 | -1 | 1 | -7 | -6
CCN(CC)S(=O)(=O)c1cc(C(=O)OCC(=O)NC2CCCc3ccccc32)ccc1C (centres undefined) | i | -7 | / | -10 | -1 | 3 | -3 | 15
COc1ccc(CC(C(=O)Nc2cc(C)ccc2C)/C(N)=N/O)cc1 (centres undefined) | i | 4 | -9 | 1 | 2 | 1 | 7 | -451
CCc1nc2sc(C)c(C)c2c(=O)n1CCO | i | -3 | -11 | -4 | 7 | 6 | -8 | /
CSc1nnc(Cc2sc(-c3ccccc3)nc2-c2ccccc2)o1 | i | -12 | -10 | 8 | -1 | -2 | -10 | /
O=[N+]([O-])c1ccc(N2CCCC2)cc1NC1CC1 | i | 5 | -3 | 9 | 4 | 4 | -3 | /
COc1cccc(NC(=O)CNC(=O)N2CC(=O)Nc3ccccc32)c1 | i | -2 | -15 | -9 | -1 | -1 | -2 | -18
O=S1(=O)C=C(SCCN2CCCC2)c2ccccc21 | i | -4 | -8 | -9 | 2 | 3 | 0 | -99
Cc1cc(C)c2c(n1)sc1c(=O)[nH]c(SCc3ccccc3)nc12 | i | 0 | -18 | 1 | 0 | 5 | -5 | 1
CC1CCCN(CC(=O)Nc2cc(S(=O)(=O)N3CCOCC3)ccc2N2CCCC2)C1 (centres undefined) | / | / | -15 | / | -6 | -2 | / | 10
COc1ccc(CCNC(=O)Cn2c(=O)oc3cc(Cl)ccc32)cc1OC | i | -8 | -6 | 14 | -1 | -4 | 5 | 10
CCCN1CCN(CCCNC(=O)C2CCN(c3nnc(-n4cccc4)s3)CC2)CC1 | i | -14 | -15 | -9 | -1 | 2 | -1 | /
CC1=C(C(N)=O)C(c2ccc(Br)cc2)n2nc(CCCO)nc2N1 (centres undefined) | i | -14 | -9 | 1 | 0 | 3 | 1 | 27
O=C(Cc1ccc(Br)cc1)Nc1ccc(S(=O)(=O)Nc2ncccn2)cc1 | i | -11 | -11 | -13 | -1 | 5 | -1 | 5

Molecules shown so far that have an aryl methoxy group (5):
SMILES | Rce1 inhib | eIF4H FP inh | UUG fidelity | CSC inhib | MT1-MMP act inh | MT1-MMP act inh RFP | PABP polyA inh | HIV Env fusion | others
COc1ccc(S(=O)(=O)N2CCOCC2)cc1C(=O)Nc1nc2ccccc2s1 | i | 1 | -5 | -6 | 0 | -2 | 2 | 1
COc1cccc(C(c2c(C)[nH]n(-c3ccccc3)c2=O)c2c(C)[nH]n(-c3ccccc3)c2=O)c1O | i | / | / | -10 | 9 | 3 | / | 6
COc1ccc(CC(C(=O)Nc2cc(C)ccc2C)/C(N)=N/O)cc1 (centres undefined) | i | 4 | -9 | 1 | 2 | 1 | 7 | -451
COc1cccc(NC(=O)CNC(=O)N2CC(=O)Nc3ccccc32)c1 | i | -2 | -15 | -9 | -1 | -1 | -2 | -18
COc1ccc(CCNC(=O)Cn2c(=O)oc3cc(Cl)ccc32)cc1OC | i | -8 | -6 | 14 | -1 | -4 | 5 | 10

The results go on.
SMILES | Rce1 inhib | eIF4H FP inh | UUG fidelity | CSC inhib | MT1-MMP act inh | MT1-MMP act inh RFP | PABP polyA inh | HIV Env fusion | others
Cc1cc(Cl)ccc1NC(=S)NCCc1ccc(S(N)(=O)=O)cc1 | i | / | -30 | -5 | 1 | -1 | / | 10
CN(C)c1ccc(CNCCC2CCOC(C)(C)C2)cc1 (centres undefined) | i | -10 | / | 4 | / | / | 5 | /
CC(C)CC(COCc1ccc(F)cc1)N1CCN(C(=O)c2cccc(C(F)(F)F)c2)CCC1=O (centres undefined) | i | 7 | 3 | -4 | 2 | -8 | 5 | 39
COc1ccc(S(=O)(=O)N2CCCCCC2)cc1C(=O)OC(C)C(N)=O (centres undefined) | i | -4 | -3 | -20 | 2 | 6 | -10 | 14
C=CCNc1nc(-c2ccc(OC)cc2OC)cs1 | i | -10 | -17 | 4 | 4 | -1 | 33 | -395
CC1C/C(=N/NC(=O)c2ccc(CSc3nc4ccccc4[nH]3)cc2)CC(C)(C)C1 (centres undefined) | i | 4 | -15 | 16 | 3 | 0 | -3 | -21
Cc1ccc(S(=O)(=O)Nc2ccc3nc(-c4cccn4C)[nH]c3c2)cc1 | i | 0 | -16 | 7 | -1 | -4 | 15 | 31
Cc1cc(NC(=O)CSc2nc(=O)n3cc(Cl)ccc3n2)no1 | i | / | / | 2 | -4 | 1 | / | -5
CCOC(=O)c1sc2nc(CN3CCCCC3)nc(Cl)c2c1C | / | -5 | / | 0 | 3 | 6 | -13 | /
CC(=O)Nc1cccc(-c2ccnc3c2CC(C(=O)Nc2ccccc2)O3)c1 (centres undefined) | / | / | 6 | / | 1 | -3 | / | 10
Cc1ccc(C(=O)c2ccccc2C(=O)OCC(=O)Nc2cccc([N+](=O)[O-])c2)cc1 | i | 2 | -25 | 6 | -1 | -5 | 6 | /
CCn1nnc(-c2ccc(N)cc2)n1 | i | -8 | -34 | -12 | 0 | 4 | 2 | 6
Cc1noc(NS(=O)(=O)c2ccc(NC(=O)COc3ccc(C#N)cc3)cc2)c1C | / | / | / | -12 | 2 | 5 | / | 10
CCOC(=O)c1cn(-c2ccc(F)c(F)c2F)c2c(F)c(F)c(F)cc2c1=O | i | -6 | -26 | 0 | -3 | -3 | -4 | 6
C=CCNC(=S)N/N=C(\C)c1ccccn1 | i | 14 | -49 | 114* | 15 | 6 | 2 | 1
NC(=O)c1ccc(NC(=O)COC(=O)C2COc3ccccc3O2)cc1 (centres undefined) | / | / | -14 | -13 | 1 | 4 | / | -34
O=C(COC(=O)c1cccc(NS(=O)(=O)c2ccc(F)c(F)c2)c1)NC(=O)NC1CCCC1 | i | 85 | / | -13 | 0 | -4 | 6.1* | 9 | eIF4H FP inh retest=19;PABP polyA inh retest=50*
COc1ccccc1CN1CC(C(=O)NCCCCc2ccccn2)CCC1=O (centres undefined) | / | / | -6 | / | 2 | 3 | / | -7
O=C(N/C(=C\c1ccco1)C(=O)N1CCCC(CO)C1)c1ccccc1 (centres undefined) | i | 16 | 5 | -3 | 1 | 2 | 15 | 1
Cc1ccc(C)c(N2CC(C(=O)OCC(=O)Nc3cc(C)on3)CC2=O)c1 (centres undefined) | i | -7 | -17 | / | 3 | 2 | 2 | -5
COc1ccc(C(=O)NCc2ccncc2)cc1S(=O)(=O)NCc1ccc(Cl)cc1 | / | / | -7 | -5 | -1 | -1 | / | /
COc1ccc(CCN2C(=NC(=O)CCC(=O)O)SC3CS(=O)(=O)CC32)cc1 (centres undefined) | i | -3 | -9 | -1 | 3 | 2 | -14 | -17
C=CCN1C(=O)N(/C=C/C)c2cccc3cccc1c23 | i | 68 | -23 | -2 | -7 | -4 | 38 | -231 | eIF4H FP inh retest=21;PABP polyA inh retest=30
CCCCNC(C(=O)Nc1ccc([N+](=O)[O-])cc1Br)c1ccccc1 (centres undefined) | i | 10 | / | -4 | 0 | 4 | -1 | 1
c1ccc(CN2CCC3(CC2)Nc2ccccc2S3)cc1 | i | -1 | / | 7 | 2 | 2 | -14 | 16

More records follow:
SMILES | Rce1 inhib | eIF4H FP inh | UUG fidelity | CSC inhib | MT1-MMP act inh | MT1-MMP act inh RFP | PABP polyA inh | HIV Env fusion | others
CC(=O)Nc1ccc(N2C(=O)CSC2c2cccc(Br)c2)cc1 (centres undefined) | i | 0 | 13 | 11 | -2 | 0 | 1 | 5
CCC1CCCCN1S(=O)(=O)c1ccc([N+](=O)[O-])cc1 (centres undefined) | i | -6 | -8 | -15 | 1 | 0 | -6 | 12
COc1ccc2c(c1)c(=O)oc1cc(OCC(=O)NC3CCCCC3)ccc12 | i | 91* | 28 | -3 | 11 | -2 | 18 | -26 | eIF4H FP inh retest=53*;PABP polyA inh retest=42
CCN(C(=O)COC(=O)c1ccc(C)c(S(=O)(=O)N2CCCCC2)c1)C1CCS(=O)(=O)C1 (centres undefined) | i | / | -11 | -14 | 3 | 4 | / | -7
Cc1sc2nc(SCC(=O)N(CCO)CCO)nc(N)c2c1C | i | -7 | / | -9 | 2 | 4 | 7 | 10
COc1cc2c(cc1OC)CN(C1CCCN(Cc3cc(Cl)ccc3O)C1)CC2 (centres undefined) | i | -7 | -15 | 26 | 1 | -2 | -4 | -18
Cc1ccccc1Sc1c(C#N)c(-c2ccccc2)nn1C | i | -16 | 6 | 22 | 4 | -16 | 0 | /
Cc1sc2nc(SCC(=O)N(C)Cc3ccccc3)n(-c3ccccc3)c(=O)c2c1C | i | -11 | -22 | 37 | -9 | -12 | -8 | /
CCOc1ccc2nc(N3C(=O)/C(=C/c4ccc(Cl)cc4)NC3=S)sc2c1 | i | 27 | / | / | -115 | -15 | 14 | -17
Cc1cccc(NC(=O)c2ccccn2)c1C | i | 1 | -1 | 6 | 1 | 0 | 11 | -102
Cc1c(C)c2ccc(OC(C)C(=O)N3C[C@H]4C[C@@H](C3)c3cccc(=O)n3C4)c(C)c2oc1=O (some centres undefined) | i | 4 | -18 | -6 | 4 | 0 | -2 | /
Cc1cc([N+](=O)[O-])nn1CC(=O)N/N=C/c1ccccc1O | i | 15 | / | -5 | 5 | 2 | -5 | -4
O=C(O)c1ccc(OCCn2ccnc2)cc1 | i | -14 | -2 | -3 | 3 | 6 | -5 | 5
Cc1ccc(N(CN2C(=O)C3C4CCC(C4)C3C2=O)C(=O)c2ccco2)cc1 (centres undefined) | i | 1 | / | 1 | -3 | 0 | -3 | 9
